# Rango-impB inh: qHTS Assay for Inhibitors of Rango (Ran-regulated importin-beta cargo) - Importin beta complex formation | Rango CFP/YFP FRET sensor + importin beta, 45 min | Potency, µM (top dose mostly 92.2 µM), for the others: at the highest dose inhibition of complex formation | 340,000 tested, 0.031% active | AID 540263, 2011 | Importin subunit beta-1 (Homo sapiens), Q14974; active = rising FRET ratio curve, often small or poorly fitted; inconclusive = mostly compound fluorescence or quenching in the first reads; inactive = flat curves in all reads;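 also: potency is read from the fitted curve at half-maximal effect; 0% = DMSO wells and 100% = buffer wells lacking importin beta; nearly all actives have a fitted effect of over 15% in size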
# Target sequence (Q14974 whole entry, looked up): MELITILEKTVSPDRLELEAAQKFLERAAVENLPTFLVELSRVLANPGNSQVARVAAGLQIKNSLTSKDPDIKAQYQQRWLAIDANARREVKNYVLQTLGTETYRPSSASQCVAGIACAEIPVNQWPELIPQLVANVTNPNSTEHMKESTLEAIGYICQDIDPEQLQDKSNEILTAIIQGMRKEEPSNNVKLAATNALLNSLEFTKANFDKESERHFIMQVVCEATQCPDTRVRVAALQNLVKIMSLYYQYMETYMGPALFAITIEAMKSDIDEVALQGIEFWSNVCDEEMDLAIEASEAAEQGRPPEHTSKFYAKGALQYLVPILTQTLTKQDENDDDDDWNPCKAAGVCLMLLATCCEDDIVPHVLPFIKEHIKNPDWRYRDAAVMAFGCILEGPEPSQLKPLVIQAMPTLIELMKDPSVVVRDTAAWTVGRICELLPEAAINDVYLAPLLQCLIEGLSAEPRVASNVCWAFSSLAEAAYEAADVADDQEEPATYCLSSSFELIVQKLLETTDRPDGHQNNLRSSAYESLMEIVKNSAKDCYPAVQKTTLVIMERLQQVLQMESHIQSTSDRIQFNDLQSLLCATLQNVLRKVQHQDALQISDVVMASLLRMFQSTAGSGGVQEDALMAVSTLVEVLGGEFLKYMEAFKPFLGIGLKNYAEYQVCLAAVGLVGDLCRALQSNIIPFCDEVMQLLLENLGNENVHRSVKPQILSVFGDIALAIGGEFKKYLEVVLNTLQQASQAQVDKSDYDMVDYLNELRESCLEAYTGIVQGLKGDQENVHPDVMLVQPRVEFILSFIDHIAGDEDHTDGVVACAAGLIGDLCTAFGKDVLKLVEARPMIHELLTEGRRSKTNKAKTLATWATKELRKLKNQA
#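 Inhibition scored from the CFP 486 nm/YFP 530 nm FRET ratio 45 min after adding 0.125 microM importin beta to 50 nM Rango biosensor preincubated 5 min with compound (room temperature, PBS with DTT, Tween-20, BSA). No-importin wells as positive control.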
# Rango release inh: qHTS Assay for Inhibitors of RanGTP induced Rango (Ran-regulated importin-beta cargo) - Importin beta complex dissociation; 340,000 tested, 0.071% active; Potency, µM (titrated, usually from 46.1 µM), without a hit: at the highest dose activity change, negative = inhibition; Biochemical FRET Rango-importin beta, RanGTP-induced dissociation; active means falling FRET ratio curve, often poorly fitted, with flat reads before Ran was added; inconclusive means other falling curves, or compound fluorescence or quenching; inactive means flat or rising ratio curve;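 also: potency is read from the fitted curve at half-maximal effect; % of control where 0% means no effect; nearly all actives have a fitted effect of over 45% in size; -100% = wells without RanGTP and RCC1; the record marks most hits as doubtful in a second field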
#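 Two FRET readings bracket the reaction: one 5 min after compound meets Rango–importin beta, another 45 min after RanGTP-RCC1 (0.6 uM Ran, 0.2 uM RCC1, 2 mM GTP) is added. Only the second defines inhibition.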
# GLA inh pH 4.5: qHTS Assay for Inhibitors of Human alpha-Galactosidase at pH 4.5; Alpha-galactosidase A (Homo sapiens), P06280; activity change, negative = inhibition, % at 105 µM; AID 1467, 2008; 230,000 tested, under 10 active; purified enzyme, 4-MU-alpha-Gal fluorescence, pH 4.5; inconclusive = small, poorly fitted or top-dose-only inhibition, or a rising curve; inactive = flat fitted curve, though single readings scatter; no compound was filed as active;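 also: 0% = full activity with enzyme and -100% = basal without enzyme; dose as in the result columns while the protocol names 77 µM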
# miR-21 FLuc: qHTS Assay for Modulators of miRNAs and/orActivators of miR-21; HeLa miR-21 FLuc reporter, luciferase, 48 h; Potency, µM (highest dose often 38.3 µM), for the others: top-dose reporter change, positive = more light; 340,000 tested, under 10 active; AID 2288, 2010; active = well fitted rising curve with a large enough effect; inconclusive = small, poorly fitted or top-dose-only effect; inactive = no such curve, though single readings can be large or run the other way;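 also: % of control where 0% means no effect; miR-21 action dims this reporter so a rising signal means less miR-21 action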
#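 HeLa miR-21-FLuc reporter line, endogenous miR-21; 2000 cells/well in DMEM/10% FBS; compound titration up to ~40uM final, 48 h, 37 degree Celsius; luciferase detection reagent, 15 min lysis, CCD luminescence.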
# Starred values were filed as active, the others as inactive; ? = inconclusive; / = not tested or not shown; & = joins results of further samples.
cpd	SMILES	Rango-impB inh	Rango release inh	GLA inh pH 4.5	miR-21 FLuc
1	CC(C)C1Cc2c(sc3c2c(=O)n(-c2ccccc2)c2n[nH]c(=S)n32)CO1 (configuration not stated)	3.0%	-1%	-9	-5%
2	O=C(CCCC(=O)N(CC(=O)NC1CCCC1)Cc1ccccc1Cl)Nc1ccccn1	-3.3%	0%	-3	-1%
3	CCC(C)NC(=O)CCC(=O)Nc1ccc2nc(N3CC(C)CC(C)C3)cc(C)c2c1 (configuration not stated)	0.5%	0%	?	-9%
4	CCCC[C@@H]1C=C(C(=O)O)[C@H](c2ccc(Cl)cc2)N1S(=O)(=O)c1ccc(C)cc1	?	?	/	/
5	Cc1ccccc1N/C(SCc1ccc(Cl)cc1)=C(/C#N)C(=O)NCc1ccco1	4.2%	13%	2	12%
6	Cc1ccc(C)c(Nc2nc(N)c3ccccc3n2)c1	-0.6%	8%	-4	-29%
7	COc1ccc(/C(N)=C/C(=O)C(C)(C)C)cc1	-4.5%	0%	1	-43%
8	CCOC(=O)C1CCN(C(=O)c2cc3c(C)cc(C)cc3[nH]2)CC1	0.6%	15%	/	-15%
9	COc1ccc(C(=O)NC(=S)N2CCNC(=O)C2CC(=O)OC(C)C)cc1 (configuration not stated)	4.8%	-9%	/	-7%
10	Cc1ccc(S(=O)(=O)Nc2cccc(S(=O)(=O)Nc3ccccc3C(=O)O)c2)c(C)c1	-0.7%	13%	/	/
11	O=C(O)CCCc1ccc2c(c1)CCc1ccccc1-2	1.0%	-9%	/	/
12	O=C1NC(=O)/C(=C/C(=O)N2CCOCC2)S1	0.4%	13%	8	-1%
13	COc1cc2c(cc1OC)CN(CC(=O)Nc1ccc(S(=O)(=O)N(C)C)cc1)CC2	3.7%	19%	-3	0%
14	CCOC(=O)N1CCC(N2CC34C=CC(O3)C(C(=O)O)C4C2=O)CC1 (configuration not stated)	3.4%	-11%	10	-1%
15	CC(=O)Nc1ccc2ccccc2c1[N+](=O)[O-]	0.9%	10%	/	/
16	CCOC(=O)C(NC(=O)NCc1ccccc1OC)(OCC)C(F)(F)F (configuration not stated)	-9.7%	-14%	9	-4%
17	COC(=O)c1ccc(NC(=O)C2CCCN(S(C)(=O)=O)C2)cc1 (configuration not stated)	0.3%	-6%	-11	0%
18	CC(=O)Nc1cccc2c1C(=O)NC2=O	0.0%	-17%	-2	-2%
19	CSc1sc(C(=O)NCC2CC2)c(-c2cccs2)c1C#N	0.3%	-2%	-3	18%
20	Cn1c(=O)[nH]c(=O)c2c1nc(N1CCN(CCO)CC1)n2CCSc1nc2ccccc2s1	0.1%	4%	-1	-15%
21	Nc1cc(=O)nc(SCC(=O)NCc2ccccc2)n1CCc1ccccc1	-0.2%	11%	-5	-1%
22	COc1cc(CNc2ccc3[nH]c(=O)[nH]c3c2)ccc1OCc1ccccc1Cl	1.9%	6%	/	-11%
23	O=C(NC1c2ccccc2Oc2ccccc21)c1ccc([N+](=O)[O-])cc1	3.9%	-18%	/	/
24	Cn1c(=O)c2c(ncn2CC(COCc2ccc(Cl)cc2)OCc2ccc(Cl)cc2)n(C)c1=O (configuration not stated)	1.5%	15%	-2	1%
25	Cc1ccccc1Nc1c(-c2cccnc2)nc2cccc(C)n12	-1.9%	?	-12	?
26	COc1ccc(S(=O)(=O)N(CC(=O)N/N=C/c2ccc(C(=O)O)cc2)Cc2ccccc2)cc1OC	-1.3%	14%	/	0%
27	O=c1[nH]c2cc3c(cc2cc1CN(CC1CCCO1)S(=O)(=O)c1ccc(Cl)cc1)OCCO3 (configuration not stated)	-4.5%	-9%	3	-49%
28	CC(C)(C)c1ccc(-c2noc(CCC(=O)N3CCOCC3)n2)cc1	-4.7%	-23%	-2	0%
29	Cc1ccccc1OCC(=O)NNC(=O)c1cc(S(=O)(=O)N2CCOCC2)ccc1N1CCCC1	1.8%	18%	/	/
30	CC(=O)Nc1cccc(C(=O)OCC(=O)c2ccccc2Cl)c1	4.5%	2%	10	-51%
31	Cc1ccc(NC(=O)CCc2nc(-c3cccs3)no2)c(Br)c1	?	4%	/	-7%
32	C=CCSc1ncccc1C(=O)O	1.9%	0%	8	-4%
33	N#C/C(=C\Nc1ccc2cn[nH]c2c1)c1nc(-c2ccc(Cl)cc2)cs1	?	-12%	-6	-4%
34	CNS(=O)(=O)c1cccc(C(=O)NNC(=O)CN(C)S(=O)(=O)c2ccc(Cl)cc2)c1	-1.0%	-1%	/	/
35	CC(=O)c1ccc(NC(=O)CC(NCCC2=CCCCC2)C(=O)O)cc1 (configuration not stated)	1.9%	-10%	-1	-4%
36	COC(=O)c1ccc(NCC(=O)Nc2cc(C)cc(C)c2)cc1	3.1%	-6%	2	-10%
37	CCn1nnnc1SCC(=O)Nc1sc(C)c(C)c1C#N	-0.8%	-1%	3	-5%
38	Cc1cccc(NC(=O)c2nc[nH]c2C(=O)N[C@@H](Cc2ccccc2)C(=O)OCc2ccccc2)c1	2.2%	-10%	-9	0%
39	NS(=O)(=O)c1ccc(NC(=O)COC(=O)COc2ccc3ccccc3c2)cc1	0.2%	5%	5	3%
40	O=C(COC(=O)c1oc2ccccc2c1CSc1ccc(Cl)cc1)NC1CCCC1	-3.3%	8%	0	-2%
41	COc1ccc2nc(C)cc(SCC(=O)N/N=C/c3c(OC)ccc4ccccc34)c2c1	-5.1%	5%	-1	-8%
42	COc1ccc(C)cc1S(=O)(=O)n1nc(C)cc1C	-1.2%	2%	-10	-6%
43	CCOC(=O)c1cnn(CCOC(=O)c2cccs2)c1NC(=O)c1cccs1	-1.9%	-4%	10	-9%
44	NS(=O)(=O)c1ccc2nc(NC(=O)c3ccc(Br)o3)sc2c1	-3.4%	9%	2	-49%
45	COc1cc(C2C3=C(COC3=O)Oc3cc4c(cc32)OCO4)ccc1OC(C)=O (configuration not stated)	3.7%	-13%	/	/
46	CCCn1c(SCC(=O)NC2CCCCC2C)n[nH]c1=O (configuration not stated)	0.0%	-1%	11	1%
47	CN(NS(C)(=O)=O)c1c(C#N)c(C(F)(F)F)nn1C	0.5%	-12%	1	9%
48	Cc1ccc(CNC(=O)Cn2c(=O)n(CC(=O)N3CCCCC3)c(=O)c3sccc32)cc1	-0.3%	27%	/	0%
49	CCN(CC)c1ccc(C(=O)c2ccccc2C(=O)O)c(O)c1	-1.1%	12%	-13	-26%
50	CCCCN=C(C)c1c(O)c2ccccc2oc1=O	-2.3%	-16%	2	-46%

# (continued)
cpd	SMILES	Rango-impB inh	Rango release inh	GLA inh pH 4.5	miR-21 FLuc
51	CC(CC(=O)NCCc1ccc(S(N)(=O)=O)cc1)c1ccccc1 (configuration not stated)	1.4%	-9%	/	-1%
52	CCN1CCN(C(=O)c2ccccc2N(Cc2ccccc2)S(=O)(=O)c2ccc(C)cc2)CC1	1.2%	0%	-3	14%
53	CC1Cc2nc(SCC(=O)Nc3ccc4c(c3)OCO4)n(-c3ccc(F)cc3)c(=O)c2S1 (configuration not stated)	-0.2%	5%	1	-2%
54	COc1cccc2cc(C(=O)c3ccc([N+](=O)[O-])cc3)oc12	-1.4%	-10%	3	-12%
55	Cc1ccc(-n2nc(C)c(NS(=O)(=O)c3ccccc3)c2C)cc1C	-0.1%	26%	2	-3%
56	O=C(CN1CCN(Cc2ccccc2Cl)C1=O)N1CCCCCC1	-4.1%	7%	9	-13%
57	CCN(CC)CCCNC(=O)c1cc2c(=O)n(CC)c3ccccc3c2s1	0.1%	-7%	/	-28%
58	CCC(C)C(NC(=O)/C(=C\c1ccccc1)NC(=O)c1ccc(OC)cc1)C(=O)O (configuration not stated)	-6.1%	-14%	0	2%
59	O=C1[C@@H]2[C@@H]3C[C@@H]([C@H]4ON=C(c5ccc(Cl)cc5)[C@@H]34)[C@@H]2C(=O)N1c1ccc2c(c1)OCO2	?	7%	7	-8%
60	CCOC(=O)C1CCCN(c2c(N3CCOCC3)c(=O)c2=O)C1 (configuration not stated)	0.2%	1%	2	-1%
61	O=C(CCCCCn1c(=S)[nH]c2ccc(Br)cc2c1=O)NCC1CCCO1 (configuration not stated)	-0.4%	-6%	6	-4%
62	CC1(C)CC(NC(=O)C23CCC(C)(C(=O)C2=O)C3(C)C)CC(C)(C)N1 (configuration not stated)	-1.7%	13%	/	-2%
63	O=C1c2ccccc2C(=O)N1CC1c2ccccc2CCN1S(=O)(=O)c1cnc[nH]1 (configuration not stated)	-2.7%	-12%	-8	-3%
64	COc1ccc(CCN2C(=O)CC(Sc3ncccc3C(=O)O)C2=O)cc1OC (configuration not stated)	-2.7%	1%	0	-3%
65	C#CCOCCOCCOCCNc1nc(N2CCOCC2)nc(N2CCN(C(=O)[C@H](CC(N)=O)n3cc([C@@H](N)C(C)C)nn3)CC2)n1	1.0%	1%	/	/
66	O=C(Nc1ccc2c(c1)OCCO2)c1ccncc1	3.2%	-2%	-10	-41%
67	CCOc1cc(C(=O)Nc2ccc(N3CCN(C(C)=O)CC3)cc2)cc(OCC)c1OCC	0.1%	0%	/	-2%
68	COCCNC(=O)C(OC(=O)C1=Cc2ccccc2OC1)C(C)C (configuration not stated)	-0.6%	9%	-5	3%
69	Cc1c(Cl)cccc1N(Cc1ccc(C(=O)O)cc1)S(=O)(=O)c1ccccc1	1.4%	-11%	-29	5%
70	COc1cc(NC(=O)c2cc(-c3ccc4c(c3)OCO4)on2)cc(OC)c1OC	?	-2%	/	21%&17%
71	COc1ccc(OC)c(-c2csc(NC(=O)CSCc3c(C)noc3C)n2)c1	-0.1%	-8%	/	/
72	CCc1nn2c(N3CCOCC3)cc(C)nc2c1-c1ccc(F)cc1	-3.3%	1%	-3	-4%
73	COc1ccccc1-c1ccc(SCC(=O)NCc2ccc3c(c2)OCO3)nn1	4.0%	15%	-5	-1%
74	COC(=O)c1ccc(NC(=O)c2ccc3nccnc3c2)cc1	0.8%	-1%	/	-14%
75	COc1ccc(Cc2nnc(NC(=O)c3ccc(OC)c(OC)c3)s2)cc1OC	3.5%	12%	5	-9%
76	CCN1C(=O)N(c2ccc(C(C)=O)cc2)S(=O)(=O)c2ccccc21	-1.0%	4%	/	-3%&-2%
77	Cc1ccc(CNS(=O)(=O)c2ccc(-c3cnc(C4CC4)o3)cc2)cc1	-0.9%	?	/	1%&-1%
78	Cc1nn(C)c(C)c1/C=N/NC(=O)CCn1cc([N+](=O)[O-])cn1	-4.1%	9%	-1	-2%
79	CCCCN1C(=O)CCC(C(=O)O)C1c1ccc(OC)cc1 (configuration not stated)	3.2%	20%	2	-3%
80	COc1cccc(NC(=S)N(CCN(C)C)Cc2cccs2)c1	1.5%	2%	4	-8%
81	COc1ccc(-c2sc(Nc3ccccc3)n[n+]2-c2ccc(F)cc2)c(C)c1C	0.0%	-5%	/	1%
82	O=C(CN1C(=O)c2ccccc2S1(=O)=O)NCCSCc1cccc(Cl)c1	4.8%	-9%	/	0%
83	CN(C)CC/C=C1\c2cc(F)ccc2CSc2ccccc21	3.5%	10%	-12	13%
84	Cc1ccc(NC(=O)CCC(=O)O)cc1F	-0.5%	19%	-8	-2%
85	Cc1nc2ccc(NS(=O)(=O)c3c(F)cccc3F)cc2s1	?	-12%	/	/
86	O=C(Cc1ccccc1)Nc1cccc(-c2nc3ncccc3o2)c1	-0.2%	2%	-2	-8%

# Quoted from above (4 entries):
cpd	SMILES	Rango-impB inh	Rango release inh	GLA inh pH 4.5	miR-21 FLuc
76	CCN1C(=O)N(c2ccc(C(C)=O)cc2)S(=O)(=O)c2ccccc21	-1.0%	4%	/	-3%&-2%
77	Cc1ccc(CNS(=O)(=O)c2ccc(-c3cnc(C4CC4)o3)cc2)cc1	-0.9%	?	/	1%&-1%
78	Cc1nn(C)c(C)c1/C=N/NC(=O)CCn1cc([N+](=O)[O-])cn1	-4.1%	9%	-1	-2%
79	CCCCN1C(=O)CCC(C(=O)O)C1c1ccc(OC)cc1 (configuration not stated)	3.2%	20%	2	-3%

# Not all compounds are listed (hit frequency here may not be typical).
